TRPML1 inh – blocks the human TRPML1 channel. AID 624415. activity change, negative = inhibition, % (test concentration not listed). 390,000 compounds, 0.02% hits. Q9GZU1. TRPML1-inducible cells, Ca2+ dye fluorescence, FDSS; stronger effect = lower value; inhibition of EC80 agonist-evoked calcium signal; in the data active means activity change below about -50%; inconclusive means about -30% to -50%; inactive means above about -30%;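 further: stimulus is agonist 54-4 at its EC80 concentration; on the % scale 0 is the no-effect control and ±100 the full control effect; compound concentration not given in the record; the text of the record puts the active cut at -80%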
Target sequence (Q9GZU1 whole entry, looked up): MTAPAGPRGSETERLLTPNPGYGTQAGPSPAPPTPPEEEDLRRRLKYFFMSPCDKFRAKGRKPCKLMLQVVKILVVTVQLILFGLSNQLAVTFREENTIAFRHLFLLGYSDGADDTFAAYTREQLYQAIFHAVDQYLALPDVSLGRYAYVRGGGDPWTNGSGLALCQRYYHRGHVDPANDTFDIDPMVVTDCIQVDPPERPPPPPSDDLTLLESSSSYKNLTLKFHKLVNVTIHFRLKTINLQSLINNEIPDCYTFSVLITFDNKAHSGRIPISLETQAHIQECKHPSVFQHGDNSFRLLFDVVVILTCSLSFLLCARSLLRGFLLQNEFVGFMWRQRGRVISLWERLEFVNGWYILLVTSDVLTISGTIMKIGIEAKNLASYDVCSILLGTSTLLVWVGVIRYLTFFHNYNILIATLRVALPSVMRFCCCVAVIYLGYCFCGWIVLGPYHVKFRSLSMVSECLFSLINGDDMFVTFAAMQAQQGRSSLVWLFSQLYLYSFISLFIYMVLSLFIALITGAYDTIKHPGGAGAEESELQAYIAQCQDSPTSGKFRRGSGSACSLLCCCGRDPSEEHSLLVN
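Calcium fluorescence in TRPML1-DL cells induced overnight with Tet: a 110 s read after compound pin addition, then a 110 s antagonist read after challenge with 54-4 at 4 uM final (EC80).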
TRPML1 agonist – agonists of human TRPML1 channel. TRPML1-expressing cells, Ca2+ dye fluorescence, FDSS; host cell line not named in the record; reference of the full effect not given here. activation, % (no concentration beside the values). 410,000 compounds, 0.12% hits. AID 624414; in the data active = activation above about 50%; inconclusive = about 30% to 50%; inactive = below about 30%; further: 0% is about no effect; the text of the record puts the active cut at 80%
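Tetracycline-induced TRPML1-DL cells are seeded and incubated overnight before loading with a no-wash Ca2+ dye and quencher. Agonist activity is taken from the 110 s fluorescence read following compound pin-transfer on an FDSS, before EC80 54-4 challenge.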
Six1-Eya2 blk – blocks human Six1 binding to Eya2 | Q15475+O00167 | AlphaScreen GST-Six1/His-Eya2 binding, biochemical; stronger effect = lower value; control for the full effect not named in the record | activity change, % (no concentration beside the values) | 360,000 compounds, 0.56% hits | AID 651725; in the data active = activity change below about -65%; inconclusive = about -30% to -65%; inactive = above about -30%; further: on the % scale 0 is the no-effect control and ±100 the full control effect
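Six1/Eya2 binding was read as AlphaScreen signal after compounds were pinned into GST-Six1 plus His-tagged Eya2 (5X stock 250/500 nM) in pH 8.0 Tris/NaCl/TCEP buffer, beads added, then incubated 1 h, 37 C, dark.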
CtBP-E1A blk – inhibitors of CtBP/E1A interaction; AlphaScreen GST-E1A/His-CtBP binding, 1536-well; stronger effect = lower value; control for the full effect not named in the record; activity change, % (concentration not given with the values); 340,000 compounds, 0.49% hits; AID 651724; in the data active means activity change below about -65%; inconclusive means about -30% to -65%; inactive means above about -30%; further: on the % scale 0 is the no-effect control and ±100 the full control effect
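AlphaScreen with 125 nM GST-E1A and 125 nM His-CtBP (5X stocks) in Tris pH 8.0, 300 mM NaCl, BSA, Tween 20, TCEP. Compounds preincubated 2 h at 37 deg C, then glutathione donor/nickel acceptor beads added for 1 h at 37 deg C in dark.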
D2 potentiator – positive allosteric modulators of human D2 dopamine receptor | P14416 | DiscoveRx D2 beta-arrestin cells, luminescence, 90 min; 100% = 57 uM dopamine signal | potentiation, % (no concentration beside the values) | 360,000 compounds, 0.23% hits | AID 624464; active = potentiation of 50% or more; inconclusive = 30% to 50%; inactive = 30% or less;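 further: compound concentration not given in the record; tested on top of an EC20 dose of dopamine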
Target sequence (P14416 whole entry, looked up): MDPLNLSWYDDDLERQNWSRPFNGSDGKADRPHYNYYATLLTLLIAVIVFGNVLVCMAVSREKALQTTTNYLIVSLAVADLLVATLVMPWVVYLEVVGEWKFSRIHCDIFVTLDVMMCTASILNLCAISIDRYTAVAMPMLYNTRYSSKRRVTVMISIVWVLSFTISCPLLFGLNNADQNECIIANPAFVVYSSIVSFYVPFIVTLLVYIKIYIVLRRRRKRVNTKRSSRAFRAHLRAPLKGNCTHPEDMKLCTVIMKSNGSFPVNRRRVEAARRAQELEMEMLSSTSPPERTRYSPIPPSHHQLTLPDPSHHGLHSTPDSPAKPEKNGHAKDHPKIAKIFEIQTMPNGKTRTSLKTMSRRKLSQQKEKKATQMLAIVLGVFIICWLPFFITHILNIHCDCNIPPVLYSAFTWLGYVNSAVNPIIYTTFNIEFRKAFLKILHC
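PathHunter beta-arrestin assay in DiscoveRx D2 cells. Compounds were added with an EC20 of dopamine (50 nM final) for 90 min at 37 deg C. Luminescence was read 1 h after detection reagent, with 57 uM dopamine as the EC100 control.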
TRPV1 PAM – enhances activation of the human vanilloid receptor TRPV1; Q8NER1; TRPV1-expressing cells, Fluo-8 calcium influx, capsaicin EC20 potentiation; host cell line not named in the record; control for the full effect not named in the record; 320,000 compounds, 0.02% hits; AID 540277; potentiation, % at 8.33 µM; active means potentiation above 80%; inconclusive means 30% to 80%; inactive means below 30%; further: 0% is about no effect
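Fluo-8 calcium influx in TRPV1-expressing cells, kinetic read (ex 480/em 520 nm). Compound added and read 3 min for agonist activity, followed by capsaicin at EC20 final and 2 min further read for enhancement.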
An asterisk follows results filed as active; ? = inconclusive; . = not tested or not shown.

smiles,TRPML1 inh,TRPML1 agonist,Six1-Eya2 blk,CtBP-E1A blk,D2 potentiator,TRPV1 PAM
O=C(c1ccccc1)c1ccc(COC(=O)c2cnccn2)cc1,22,-0.6,6,13,-4,13
COc1cccc(CN(C)S(=O)(=O)c2c(C)noc2C)c1OC,-6,-0.7,8,0,-13,1
CCOc1ccc(NC(=S)N2CCC(C(=O)c3ccc(F)cc3)CC2)cc1,63,4.1,-3,-4,1,.
COc1ccccc1-n1c(SC(C)C(=O)NCC2CCCO2)nc2cc(Cl)ccc2c1=O (configuration not stated),1,-0.8,1,1,-14,-3
O=C1[C@H]2CCC=C[C@H]2[C@H](c2ccccc2Br)N1Cc1ccccc1,80,0.4,-3,3,.,.
Cc1ccc(C(=O)N2CCN(c3ccc(C(F)(F)F)cn3)CC2)c(C)c1,-4,-0.9,-3,10,-1,7
O=C(Nc1ccc2c(c1)OCO2)c1csc([C@@H]2O[C@H](CO)[C@H](O)[C@H](O)[C@H]2O)n1,25,0.0,7,7,-15,.
COc1cc(/C=N/N=C2/NC(=O)C(CC(=O)O)S2)ccc1OCc1ccc(Cl)cc1 (configuration not stated),-6,-0.7,-9,5,-8,0
COc1ccc(CCNC(=O)CCCCn2c(=O)[nH]c3ccccc3c2=O)cc1OC,11,1.0,1,-2,-6,6
O=C(COc1ccc(S(=O)(=O)N2CCCC2)cc1Cl)NC1CCCC1,20,0.0,3,3,-4,-1
Cc1ccccc1CC(=O)N1CCC(CCC(=O)NC2CC2)CC1,-8,-0.8,1,2,1,.
COCCCNC(=S)NCCNc1nc2cc(C)cc(C)c2cc1C#N,5,-0.4,-10,-5,-2,-4
CC(=O)c1ccc(Oc2cc(C(F)(F)F)cnc2C(N)=O)cc1,-5,-0.1,-3,0,-1,-3
CCN(CC)c1ncnc2c1ncn2[C@H]1CN(Cc2ccc3c(c2)OCO3)C[C@@H](CO)O1,.,-0.7,-5,-1,-13,.
COc1ccc(-c2noc(-c3ccccc3F)n2)cc1,?,2.2,33,-1,-6,-1
CCN(CC)C(=O)C1CCCN(c2ccc([N+](=O)[O-])cc2/C=N/NC(=O)c2cccc(O)c2)C1 (configuration not stated),5,-0.8,-7,1,-6,7
CCN(CC)C(=O)C1CCCN(Cc2cccc(Cl)c2)C1 (configuration not stated),28,-0.4,7,-2,-15,.
CC(C)CCN=CC1=C(O)CC(c2ccccc2)CC1=O (configuration not stated),6,-0.6,8,14,-9,-21
COc1cc(C(O)P(=O)(OC(C)C)OC(C)C)cc(OC)c1OC (configuration not stated),-5,-0.9,0,17,-9,-4
CNC(=O)C1CC(=O)N/C(=N/N=C(\C)c2cccs2)S1 (configuration not stated),35,-0.2,1,5,-12,1
CCN(CC)C(=O)CSc1nnc(-c2cccs2)n1Cc1ccco1,-22,-1.4,5,10,-7,-24
O=C(CCn1nc(-c2ccccc2)ccc1=O)N1CCCC1,28,-0.3,-1,8,-4,19
Cc1cc(N2CCOCC2)nc2cc(O)ccc12,-15,-0.9,0,3,-4,21
O=c1oc2cc(O)ccc2c2c1CCCC2,10,1.0,-10,-5,-9,-6
CCC(C)(C(=O)NC1CCCCC1)N(CC1CCCO1)C(=O)CNC(=O)c1ccccc1 (configuration not stated),2,-0.3,-1,-1,-26,5
CC(=O)N/C(=N\c1nc(C)cc(C)n1)Nc1ccccc1Cl,-7,0.3,2,-22,-3,5
COc1cccc(N2CCN(Cc3nnnn3C3CCCCC3)CC2)c1,-18,-0.1,22,48,9,-15
COc1cccc(-c2nn(-c3ccccc3)cc2/C=C\C(=O)c2cccs2)c1,25,1.9,-10,-1,1,0
COc1ccc(NS(=O)(=O)c2ccc3c(c2)NC(=O)CCS3)cc1Cl,-10,0.7,7,.,-6,-8
O=C(O)C1CCN(C(=O)Cc2ccccc2)CC1,8,-0.4,16,-1,-4,-7
CCCCNC(=O)C1CCCN1S(=O)(=O)c1cccc2nsnc12 (configuration not stated),18,0.4,1,2,1,4
Cc1c(C)c2ccc(OCC(=O)Nc3ccccn3)c(C)c2oc1=O,-1,-0.5,-7,-11,11,1
COc1cc2ncnc(NCc3cccs3)c2cc1OC,-13,2.9,-15,-1,-5,3
CC(NC(=O)c1ccc(=O)oc1)c1ccccc1 (configuration not stated),0,0.1,-18,-2,2,8
Cc1cccc(C(=O)NCC2CCN(C(=O)c3cccc(C)c3)CC2)c1,5,0.8,3,5,4,-1
Cc1ccc(C)c(N2CCN(C(=O)Cc3cn(C)c4ccccc34)CC2)c1,45,2.8,-20,-23,1,1
CCC(C)(C)n1nnnc1CN(Cc1cccs1)Cc1cc2cc(OC)ccc2[nH]c1=O,13,0.5,-7,9,-7,-1
Cc1ccc(Oc2ccc(NC(=O)CSc3n[nH]c(N)n3)cc2)cc1,1,-0.8,3,1,9,9
N#Cc1cc([N+](=O)[O-])ccc1NC(=O)COC(=O)c1cnccn1,30,-0.3,-29,-25,-7,.
Cc1c(C(=O)N2CCOCC2)[nH]c2c1C(=O)CC(c1ccc(Cl)cc1)C2 (configuration not stated),-11,1.6,-6,3,29,-2
O=C(COc1ccc2c(c1)OCO2)Nc1ccc(Cl)cn1,-2,-0.3,-9,7,-2,?
Cc1cccc(N2CCN(C(C)C(=O)N3CCc4ccccc43)CC2)c1C (configuration not stated),17,0.6,1,-14,-20,-1
O=C(CNC(=O)c1cccs1)OCC(=O)c1ccc(Br)cc1,-22,-0.6,2,-15,-19,-3
NCCCCCc1nnc(SCC(=O)Nc2cccc(Cl)c2)o1,3,-0.7,-1,2,-16,7
CC1CCCC(C)N1C(=O)COC(=O)c1cc(Br)ccc1Cl (configuration not stated),14,3.3,6,9,-6,-12
Cc1nc2ccc(NC(=O)c3ccco3)cc2s1,0,-0.6,-1,4,-3,-8
CCc1ccc(N(C(=O)c2csnn2)C(C(=O)NC2CCCC2)c2cccnc2)cc1 (configuration not stated),-12,-0.9,-1,5,0,2
Cc1ccc(SC/C(O)=C(\C#N)c2nc3ccccc3s2)cc1,-4,-1.5,2,-1,15,3
O=C1c2ccccc2C(c2nc3ccccc3[nH]2)N1Cc1ccco1 (configuration not stated),.,-0.3,5,-11,-5,.
CCCNC(=O)c1cc(C2CCCCN2C(=O)c2cc(OC)c(C)c(OC)c2)on1 (configuration not stated),.,-1.1,-4,-16,3,.

Continued.
Compound | TRPML1 inh | TRPML1 agonist | Six1-Eya2 blk | CtBP-E1A blk | D2 potentiator | TRPV1 PAM
Cc1c(C)n(CCC#N)c2ccc(Cl)cc12 | 3 | -0.1 | -14 | -4 | -13 | -11
COc1cc(NC(=O)c2ccc(Cl)cc2)c2ncccc2c1 | 42 | 2.8 | 5 | 8 | 2 | 6
COc1ccc(/C=C/c2cc(C(=O)O)c3ccccc3n2)cc1 | 12 | 0.8 | 6 | 4 | 0 | 1
CC(=O)c1ccccc1NC(=O)C1CC(=O)N(c2ccc3c(c2)OCCO3)C1 (configuration not stated) | -7 | 1.1 | 1 | -1 | 14 | 11
OC(c1ccc(F)c(F)c1)c1ncc(-c2ccc(F)cc2)[nH]1 (configuration not stated) | . | -1.1 | -8 | -3 | -8 | .
O=C(N/N=C/c1ccc(OC(=O)c2ccccc2Cl)cc1)c1ccc(O)cc1 | 7 | 1.3 | -22 | 0 | 12 | 8
COc1ccccc1CNC(=O)C1CC(c2cccc([N+](=O)[O-])c2)=NO1 (configuration not stated) | -9 | 1.2 | 0 | -23 | -9 | 12
Cc1cc(C)c(S(=O)(=O)c2cccc(Cl)c2)c(=O)[nH]1 | ? | 0.0 | 11 | 4 | 1 | 2

Single records, from the list above:
`Cc1cc(C)c(S(=O)(=O)c2cccc(Cl)c2)c(=O)[nH]1` is listed as TRPML1 inh: ?; TRPML1 agonist: 0.0; Six1-Eya2 blk: 11; CtBP-E1A blk: 4; D2 potentiator: 1; TRPV1 PAM: 2
`CCCCNC(=O)C1CCCN1S(=O)(=O)c1cccc2nsnc12` (configuration not stated) is listed as TRPML1 inh: 18; TRPML1 agonist: 0.4; Six1-Eya2 blk: 1; CtBP-E1A blk: 2; D2 potentiator: 1; TRPV1 PAM: 4

Next records:
Compound | TRPML1 inh | TRPML1 agonist | Six1-Eya2 blk | CtBP-E1A blk | D2 potentiator | TRPV1 PAM
Cn1c(-c2ccc(F)cc2)cnc1NCc1cc2c(cc1[N+](=O)[O-])OCO2 | 6 | 1.2 | -22 | -3 | -33 | 2
CCCOc1cc(C)c(S(=O)(=O)N2CCN(C)CC2)cc1C | 7 | 0.1 | -4 | -4 | -10 | -8
COc1ccc(C)cc1NC(=O)COC(=O)c1ccc(OCc2ccc(Cl)cc2Cl)c(OC)c1 | 53 | 0.7 | 0 | 3 | 0 | -4
Cc1nonc1C1CCCN1Cc1cn[nH]c1-c1ccc(-c2ccccc2)cc1 (configuration not stated) | 0 | -0.4 | -4 | 4 | -11 | -3
CCc1nnc(NC(=O)CCNC(=O)c2ccco2)s1 | 10 | 0.2 | -8 | -20 | -3 | 2
O=S(=O)(Nc1cccc2c1CCCC2)c1ccc(Cl)cc1 | 25 | 3.8 | 3 | 1 | -12 | -18
COc1ccc(CC(NC(C)=O)C(=O)NC2CCN(C(=O)C3CCCCC3)CC2)c(OC)c1 (configuration not stated) | 11 | 0.0 | 0 | 1 | -5 | 10
COc1cccc(NC(=O)c2cccc(C(=O)Nc3cccc(OC)c3)c2)c1 | 25 | 1.9 | 5 | -6 | -27 | 21
COc1cc(C(=O)Nc2ccc(C(N)=O)cc2)c([N+](=O)[O-])cc1OC | 28 | 0.7 | 5 | 1 | -3 | 5
COc1ccc(OC)c(NC(=O)c2oc3ccccc3c2NC(=O)C2CC2)c1 | 33 | 0.3 | 2 | -2 | -3 | -12
Cc1cc(C(=O)CSc2cccc[n+]2[O-])c(C)n1-c1ccccc1 | -1 | -0.8 | 19 | -1 | -14 | -3
CC1(C)SC(=S)N(/N=C/c2ccc(O)cc2)C1N(O)C(=O)Nc1ccc([N+](=O)[O-])cc1 (configuration not stated) | -11 | -0.7 | -21 | -17 | -17 | 10
CC1(C)CC(=O)C2=C(C1)OC1=C(C(=O)CC(C)(C)C1)C2c1ccc(O)cc1O | 6 | 12 | 2 | 7 | -20 | 8
O=S(=O)(c1ccccc1)c1nc(Cc2ccccc2)oc1N1CCOCC1 | -5 | -0.4 | 3 | 3 | -3 | -5
CCOc1cc(/C=C2/C(=N)N3C(=NC2=O)SN=C3S(C)(=O)=O)ccc1OS(=O)(=O)c1ccccc1 | -10 | 1.6 | -3 | . | -11 | 3
COc1ccc(NC(=S)Nn2cnnc2)c(OC)c1 | 6 | -0.4 | -15 | 5 | -8 | 4
CC(=O)Nc1cccc(NC(=O)C(C)N2c3cccc4cccc(c34)S2(=O)=O)c1 (configuration not stated) | -6 | -1.6 | -4 | 3 | -12 | 8
